Source: PubChem
KSHV LANA nucl – LANA-nucleosome interaction inhibition; FITC-LANA1-23 / chicken nucleosome fluorescence polarization; active compounds read low; 51,000 compounds, 0.3% hits; z-score (test concentration not listed);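 active means both repeat wells score below -2 in polarization z-score versus plate sample wells, excluding overly bright wells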;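 further: 100 nL library stock added to about 30 µL; numbers are from one replicate; some results filed as inactive read as strong as hits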
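Assay system: FITC-LANA peptide and chicken nucleosomes; input: 240 nM purified chicken nucleosomes (480 nM peptide binding sites), final; also added: 50 nM FITC-LANA1-23 probe; medium: TEN-BT buffer, pH 7.5; doses: pin-transferred compound, 100 nL; times: 10–45 min, room temperature; technique: fluorescence polarization; replication: duplicates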
Ab BasE inh – blocks the Acinetobacter baumannii siderophore enzyme BasE; purified BasE, fluorescence polarization binding displacement; inhibition, % (concentration not given with the values); 84,000 compounds, 0.1% hits; AID 485350;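 active means both replicates above 25% with normal brightness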;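 further: 0% = negative plate control signal and 100% = positive plate control signal; stock transfer was 100 nL into about 30 µL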
Numbers without * were called inactive; x = not tested or not shown.

structure,KSHV LANA nucl,Ab BasE inh
COc1ccc(-c2nnc(N(C)C(=O)C3CCOC3)s2)cc1 (stereo not given),-0.75,-3.9
COc1ccc(CCN2C(=O)c3ccccc3C(C(=O)O)C2c2ccccc2O)cc1OC (stereo not given),0.45,1.4
COc1ccc(N=Cc2cc(C=Nc3ccc(OC)cc3)c(S(=O)(=O)C(C)(C)C)s2)cc1,x,3.5
O=C(OCc1ccccc1)N1CN(Cc2ccccc2)Cc2c1oc1ccccc1c2=O,x,1.9
O=C(O)CC(C(=O)Nc1cc(C(F)(F)F)cc(C(F)(F)F)c1)C1=CCCCC1 (stereo not given),x,1.2
O=C(O)c1cccc(NC(=O)c2cn(-c3ccccc3)nc2-c2cc3ccccc3o2)c1,x,4.2
N#Cc1cnc(Sc2nnc(-c3ccc(Cl)cc3)n2Cc2ccccc2)nc1N,0.23,1.2
COC(=O)CNC(=O)c1cc2c(C)nn(-c3ccc(Cl)cc3)c2s1,x,1.9
CS(=O)(=O)c1ccc(NCC(=O)Nc2ccc(F)c(Cl)c2)cc1,x,-0.1
CC(C)Oc1cccc(C(=O)NCC2CCCO2)c1 (stereo not given),0.22,2.2
Cc1oc(-c2ccc(Cl)cc2)nc1CSCC(=O)N1CCc2ccccc21,2.5,-1.9
CCOC(=O)c1c(C)oc2c1c(C=NCCc1c[nH]c3ccccc13)c(O)c1ccccc12,x,0.5
Cc1ccc(-n2c(C)cc(/C=C3\SC(=O)N(C)C3=O)c2C)cc1,-0.75,-0.6
NC(=O)C1CCN(C(=O)OCC(F)(F)F)CC1,x,2.7
COC(=O)c1ccc(COC(=O)c2c3c(nc4ccccc24)CCCC3)o1,x,2.4
Cc1noc(C)c1CCC(=O)O,-0.69,-0.6
Cc1ccc(-c2cc(C(F)F)n3ncc(C(=O)NCC4CCCO4)c3n2)cc1 (stereo not given),-0.18,0.3
CC(=O)N(c1ccccc1)c1nc(CSc2nncn2-c2ccccc2)cs1,x,2.6
O=C(NCC(c1cccs1)N1CCOCC1)c1ccc(Cl)c(S(=O)(=O)N2CCOCC2)c1 (stereo not given),x,2.0
c1ccc(-n2cnnc2SCc2cn3ccccc3n2)cc1,x,1.1
CC(OC(=O)c1ccc(S(=O)(=O)C(F)F)cc1)C(N)=O (stereo not given),x,-0.1
O=C(CSc1ncn[nH]1)c1cccs1,x,-0.4
C(=N\N1CCN(c2ccccn2)CC1)/C1=C(N2CCOCC2)C(=C/c2ccccc2)/CC1,x,-0.1
O=C(CSC1CCS(=O)(=O)C1)Nc1ccccc1-c1ccccc1 (stereo not given),-1.1,1.8
O=C(O)CC(c1ccc(O)cc1)N1Cc2ccccc2C1=O (stereo not given),1.4,x
C=CCN1C(=O)C2(c3ccccc31)c1c(oc3ccccc3c1=O)C(=O)N2CCOC (stereo not given),0.48,1.3
CN1CCN(/C(=C\C#N)c2ccc(F)cc2)CC1,x,0.4
CN1CCN(CCCn2nnc3c(=O)oc4ccccc4c32)CC1,0.19,2.2
CCn1c(=O)cc(OCC(=O)NCc2cccs2)c2ccccc21,-0.14,-2.2
CCn1cc(C(=O)O)c(=O)c2cc(F)c(N3CCN(C(=S)NC(=O)c4c(-c5ccccc5)noc4C)CC3)cc21,0.042,-1.2
Cc1ccc(S(=O)(=O)N(C)c2ccc(OCC(=O)N(C)Cc3ccc(C)o3)cc2)cc1,x,2.0
O=C(Cn1nc(-c2ccccc2)c2ccccc2c1=O)Nc1cccc(C(F)(F)F)c1,x,0.0
CSc1ccc(NC(=O)NCC2COc3ccccc3O2)cc1 (stereo not given),0.36,-1.3
CCN1CCn2c3c(c4cc(Br)ccc42)CCCC31 (stereo not given),-0.31,0.2
CCOc1ccccc1NC(=O)CC(C)S(=O)(=O)c1ccc2c(c1)NC(=O)CS2 (stereo not given),3.3,-12
N#CC(C(=O)Cc1cccs1)c1ccccn1 (stereo not given),x,-1.2
CN(C)C(CNC(=O)c1ccc2c(c1)OCCO2)c1ccco1 (stereo not given),x,-2.5
CCOC(=O)c1ccc(S(=O)(=O)NCC(c2ccccc2)N(C)C)cc1 (stereo not given),x,-0.2
COc1cccc(-n2c(N)c(C(N)=O)c3nc4ccccc4nc32)c1,-1.1,0.2
COc1ccc(CCN2C(=O)CC(Nc3ccccc3)C2=O)cc1OC (stereo not given),x,-0.2
O=S(=O)(Nc1ccc(S(=O)(=O)C(F)F)cc1)C1=Cc2ccccc2CC1,x,0.5
CC(C)C(c1nnnn1C1CCCC1)N1CCc2ccccc21 (stereo not given),0.62,1.7
Cc1oc(S(=O)(=O)N2CCOCC2)cc1C(=O)NCCNc1ncccc1C(F)(F)F,-0.23,4.6
COc1cc(C)cc2oc(=O)cc(C)c12,0.43,-1.4
O=C1OC(COc2ccc(Br)cc2)CN1c1ccccc1 (stereo not given),x,0.7
c1ccc(CCCNc2nnnn2-c2ccccc2)cc1,x,1.1
CC1=C(c2ccccc2)S(=O)(=O)N=C1N(C)Cc1ccccc1,0.053,-1.7
FC(F)(F)c1ccc(N2CCOCC2)nc1,x,0.4
Cc1oc2ccc(O)c(CN3CCCCC3)c2c1C(=O)Nc1ccccc1,0.3,0.7
S=c1nc(-c2ccccc2)n(CCCn2ccnc2)c2c1CCCC2,x,1.3
Oc1cccc(Oc2ncc(C(F)(F)F)cc2Cl)c1,0.011,x
O=C(O)C1CCCCC1C(=O)Nc1ccc(CN2CCCCC2)cc1 (stereo not given),0.79,1.1
CCC(=O)OCC(=O)[C@@]1(OC(=O)CC)[C@@H](C)C[C@H]2[C@@H]3CCC4=CC(=O)C=C[C@]4(C)[C@@]3(Cl)[C@@H](O)C[C@@]21C,0.28,0.7
COCCN1Cc2cccc(C(=O)Nc3c(C)cccc3C)c2C1=O,0.77,1.4
O=C(c1noc2c1CCCC2)N(Cc1ccco1)C1CCCC1,x,1.0
c1ccc(C2C3=C(Nc4ncnn42)c2ccccc2OC3c2cccs2)cc1 (stereo not given),0.12,-0.3

Whole records, quoted from the list.
`CCC(=O)OCC(=O)[C@@]1(OC(=O)CC)[C@@H](C)C[C@H]2[C@@H]3CCC4=CC(=O)C=C[C@]4(C)[C@@]3(Cl)[C@@H](O)C[C@@]21C` across the screens: KSHV LANA nucl = 0.28; Ab BasE inh = 0.7
`O=C(O)C1CCCCC1C(=O)Nc1ccc(CN2CCCCC2)cc1` (stereo not given) across the screens: KSHV LANA nucl = 0.79; Ab BasE inh = 1.1

Later entries:
structure,KSHV LANA nucl,Ab BasE inh
O=C(OCc1ccccc1)Sc1nnc(-c2ccccc2Cl)o1,0.61,-1.2
O=C(OCN1C(=O)c2ccccc2C1=O)c1ccc(N2CCCC2=O)cc1,x,0.8
CC(C)CNC(=O)CCN1C(=O)c2ccccc2S1(=O)=O,x,0.1
CC(NC1CCCC1)c1ccccc1 (stereo not given),0.35,-0.9
O=C1OCc2cccc3cccc1c23,0.64,1.0
CCSc1nnc(C2CCCN(C(=O)C3CCC(OC)CC3)C2)n1C (stereo not given),-0.23,0.7
Clc1ccc2oc(-c3ccccc3)cc(=NCc3ccco3)c2c1,x,0.2
COc1ccc2[nH]cc(C(=O)CSc3nnc(-c4ccoc4)c(-c4ccoc4)n3)c2c1,1.1,2.2
Cc1cc(O)c(C(=O)Nc2ccc(Cl)c(Cl)c2)c(=O)n1C,0.55,2.4
CCN(C(=O)Cn1c(=O)n(CC)c(=O)c2ccccc21)c1ccccc1,-0.31,1.9
O=C(COC(=O)C1CC(=O)N(CCc2ccccc2)C1)c1ccc[nH]1 (stereo not given),x,-0.3
CC[C@H]1OC(=O)[C@H](C)[C@@H](O[C@H]2C[C@@](C)(OC)[C@@H](O)[C@H](C)O2)[C@H](C)[C@@H](O[C@@H]2O[C@H](C)C[C@H](N(C)C)[C@H]2O)C(C)(O)C[C@@H](C)CN(C)[C@H](C)[C@@H](O)[C@]1(C)O (stereo not given in full),0.76,x
O=C(O)/C=C1\OC(=O)c2ccccc21,x,1.2
CC(=O)N1CCN(S(=O)(=O)c2cccc(C(=O)NC(C)c3ccc(S(N)(=O)=O)cc3)c2)CC1 (stereo not given),x,-1.2
COc1ccc(CCNC(N)=O)cc1OC,0.38,1.9
Cc1ccc(C2CC(=O)NC(SCC(=O)OC(C)C)=C2C#N)cc1 (stereo not given),x,-2.0
CC(C)N(C(=O)c1ccc2ccccc2c1)C(C)C,-0.49,-1.9
CCN(CC)S(=O)(=O)c1ccc2nc(COC(=O)c3n[nH]c4ccccc34)[nH]c2c1,x,-1.4
CC(Oc1ccc(Br)cc1)C(=O)NCc1ccncc1 (stereo not given),-1.1,2.7
Cc1c(C(=O)O)oc2ccc(S(=O)(=O)N3CCC(C)CC3)cc12,0.024,-1.3
CCCC(=O)Oc1ccccc1NS(=O)(=O)c1ccccc1,x,-0.8
CC1=N/C(=C/c2cccnc2)C(=O)O1,x,2.7
CCOc1ccccc1-n1nnnc1SCC(=O)c1cc(Cl)ccc1OC,2,-5.0
Cc1nnc(SCC(=O)c2ccc(O)c(O)c2)s1,-0.98,13
c1ccc(N(c2ccccc2)c2nc(N3CCCCC3)nc(N3CCOCC3)n2)cc1,-0.43,3.7
O=C(CSc1ncccn1)NC1CCCc2ccccc21 (stereo not given),x,0.0
C=CCNc1nc(C(C)C)nc2c1nnn2Cc1ccccc1,-0.17,0.7
CCCC(C(=O)O)N1C(=O)/C(=C/c2ccc[nH]2)SC1=S (stereo not given),1.8,-37
CCn1c2c(c(=O)[nH]c1=O)C(c1ccc(C)cc1)C1=C(CC(C)(C)CC1=O)N2 (stereo not given),-0.91,-0.1
CCOC(=O)c1cc2sccc2n1Cc1ccccc1,0.26,1.7
Cc1noc2ncn(CC(=O)NC3CC3)c(=O)c12,x,4.9
CSc1nnc(Cc2ccccc2)n1-c1ccc(C)cc1,0.56,0.0
CC(C)N1C(=O)C2ON(c3ccc(Cl)cc3)C(c3ccccc3)C2C1=O (stereo not given),-0.26,2.1
COc1ccc(C2=NN(C(=O)CN3CCCCC3)C(c3ccc(OC)cc3)C2)cc1 (stereo not given),0.2,-9.7
CN1C(=O)N(C)C(=O)C(CC(=O)N2CCCCC2)(CC(=O)N2CCCCC2)C1=O,0.87,-1.0
CC(C)COc1ccccc1OCC(C)C,-0.21,0.5
Cc1ccccc1OCc1nnc2c3cnn(Cc4ccccc4)c3ncn12,x,0.5
CC1Cc2ccccc2N1S(=O)(=O)/C=C/c1ccccc1 (stereo not given),x,0.4
CCc1ccccc1NC(=O)CC(NCc1ccccc1)C(=O)O (stereo not given),x,2.5
Cc1ccc(C(=O)N2C(=O)C(c3ccccc3)Oc3ccccc32)cc1 (stereo not given),x,2.7
O=C(NCc1ccc2c(c1)OCO2)c1cnn(-c2cccc(F)c2)c1-n1cccc1,x,2.1
Cc1ccccc1NS(=O)(=O)c1ccc(C(=O)NN2C(=O)NC3(CCCCC3)C2=O)cc1,x,2.5
CCCN(Cc1nnc(-c2ccccc2Cl)o1)C(=O)Cc1coc2cc(OC)ccc12,x,-3.5
CCc1nc(N)ncc1-c1nnnn1-c1ccc(C)cc1,-0.56,3.8
CCOc1ccc2c(c1)[nH]c(=S)n2C,x,0.3
C=CCNC(=S)N/N=C1\CCS(=O)(=O)c2ccccc21,x,-2.7
CCCOc1ccc(C(=O)N2CCCC2)cc1,-0.98,4.9
COc1cc(NS(=O)(=O)c2ccc(NC(=O)c3cccnc3)cc2)ncn1,-0.29,4.3

4 compounds drawn at random from those above:
structure,KSHV LANA nucl,Ab BasE inh
CCCOc1ccc(C(=O)N2CCCC2)cc1,-0.98,4.9
C=CCNC(=S)N/N=C1\CCS(=O)(=O)c2ccccc21,x,-2.7
CCc1nc(N)ncc1-c1nnnn1-c1ccc(C)cc1,-0.56,3.8
CCCN(Cc1nnc(-c2ccccc2Cl)o1)C(=O)Cc1coc2cc(OC)ccc12,x,-3.5

(listing goes on)
structure,KSHV LANA nucl,Ab BasE inh
CC1CCN(C(=O)C2=NN(C3CCS(=O)(=O)C3)C(=O)CC2)CC1 (stereo not given),x,0.8
Cc1noc(C)c1C(=O)Nc1nnc(SCc2ccc(Cl)cc2)s1,x,3.7
NNC(=O)CC(=O)Nc1nc2ccccc2s1,-1.2,1.4
Cc1nnc(SC2CCOC2=O)n1C1CCCCC1 (stereo not given),x,1.2
Cc1cc(=O)oc2cc(OC(=O)c3cncc(Br)c3)ccc12,x,0.0
CC(=O)OCN1C(=O)N(C)C2C1N(C)C(=O)N2COC(C)=O (stereo not given),-0.2,0.2
CS(=O)(=O)Nc1ccc(-c2csc(-c3ccccc3)n2)cc1,x,1.9
Cc1ccc(N2C(=O)c3cccnc3C2Nc2ccc(S(=O)(=O)N3CCOCC3)cc2)cc1 (stereo not given),0.11,-2.5
Cc1cc(C)n(CC(=O)N2CCc3ccccc32)c(=O)c1C#N,1.5,-1.6
NCc1cccc(C(F)(F)F)c1,x,3.0

Only part of the results is shown; count on the stated rates, not on these rows.
